RanGTP-Impb inh: inhibitors of RanGTP-importin-beta interaction, primary screen, biochemical, FRET, CFP-Ran, YFP-importin-beta, homogeneous | Ran GTPase (GTP-bound) - importin-beta complex | cell-free CFP-Ran/YFP-importin-beta FRET ratio | inhibition, % (test concentration not listed) | 1.1% of 300,000 active;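 active = most replicates above 15%; inconclusive = exactly half above 15%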;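 note: 0% = DMSO wells and 100% = Ran loaded with GDP instead of GTP; wells of about 40 µL received 100 nL stock; the first replicate is given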
Ecoli growth: E. coli growth inhibition, primary screen, OD600 | Escherichia coli growth, 23 h; active compounds read low | OD600 absorbance (concentration not given with the values) | 0.21% of 330,000 active | AID 1053175, 2014;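 active = OD600 absorbance below the run mean of sample wells minus 3.6 SD, in any replicate, cut at about 0.56 in these data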;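 note: stock transfer was 300 nL into about 60 µL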
UCH37 DUB inh: inhibitors of human UCH37 deubiquitinase, primary screen, biochemical, Ub-AMC cleavage, fluorescence; purified proteasome/UCH37; inhibition, % (no concentration beside the values); 0.33% of 330,000 active;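 active = mean of two replicates above 20%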;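 note: 0% = compound-free wells with enzyme and 100% = wells lacking proteasome; stock transfer was 100 nL into about 20 µL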
Target sequence (Q9Y5K5 whole entry, looked up): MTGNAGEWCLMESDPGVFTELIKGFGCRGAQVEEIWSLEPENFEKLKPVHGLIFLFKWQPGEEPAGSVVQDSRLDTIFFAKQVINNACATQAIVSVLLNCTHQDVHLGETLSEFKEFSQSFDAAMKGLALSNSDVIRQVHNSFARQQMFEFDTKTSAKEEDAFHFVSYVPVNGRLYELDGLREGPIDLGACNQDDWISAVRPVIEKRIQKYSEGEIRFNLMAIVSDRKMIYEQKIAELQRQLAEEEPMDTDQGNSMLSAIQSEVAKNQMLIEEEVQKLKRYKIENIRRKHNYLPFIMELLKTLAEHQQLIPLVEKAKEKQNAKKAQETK
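System: Proteasome-associated human UCH37 deubiquitinase; Input: 0.15 nM proteasome in added enzyme buffer; Also added: Ub-AMC substrate from 1 µM stock; Incubation: 30 min compound-proteasome preincubation then 25 min substrate reaction, room temperature; Detection: fluorescence, ex 355 nm, em 460 nm; Read-out: % inhibition of Ub-AMC cleavage fluorescence; Benchmarks: no-proteasome and no-compound wells.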
Vif TR-FRET: inhibitors of Vif binding to APOBEC3G peptide, primary screen, biochemical, TR-FRET, GST-Vif 1-94, biotin-A3G peptide, dose response retest (AID 1117319) | Virion infectivity factor (Human immunodeficiency virus type 1 group M subtype B (isolate … | TR-FRET GST-Vif / biotin-A3G peptide binding; higher % means a stronger effect; test concentration not given here; strong numbers were not always called active | inhibition, %; hits with a dose series show IC50 in µM | 0.57% of 260,000 active;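 active = above the screen mean plus three standard deviations and confirmed in dose response; inconclusive = results disagree or hit not tested in dose response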;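 note: Vif residues 1-94 fused to GST binding biotinylated APOBEC3G peptide 110-148; 0% = full assay without inhibitor and 100% = GST in place of GST-Vif; retest series ran down from 100 µM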
FGF22 binding: binders of human FGF22 protein, primary screen, FGF22 synaptogenesis inhibitor project, biophysical, thermal shift, single point; Fibroblast growth factor 22 (Homo sapiens), Q9HCT0; recombinant FGF22 thermal shift, SYPRO orange fluorescence; percent of sucrose octasulfate shift, DMSO zero; calls only at 9.99 µM; 1.5% of 340,000 active;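 active = melting point raised past a set limit in the mean and every replicate; inconclusive = no clear call; three in four hits are not shown here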
Target sequence (Q9HCT0 whole entry, looked up): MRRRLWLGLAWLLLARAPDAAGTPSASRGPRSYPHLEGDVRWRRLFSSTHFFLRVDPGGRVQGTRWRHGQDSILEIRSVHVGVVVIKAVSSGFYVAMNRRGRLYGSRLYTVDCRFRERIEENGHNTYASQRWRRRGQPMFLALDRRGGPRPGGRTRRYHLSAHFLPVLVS
HNF4A DNA FP: change in binding of human HNF4A to DNA, primary screen, biochemical, fluorescence polarization, FITC-DNA | 0.3% of 360,000 active | 1 h | activity change, % at 10 µM | Hepatocyte nuclear factor 4-alpha (Homo sapiens), P41235; in the data active = activity change above about 30%, passing the limit was not always enough;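 note: controls were the assay level and a saturating level of protein; the project sought stronger binding though the title names inhibitors; some compounds called inactive have numbers as strong as hits; positive values seem to mean higher polarization but the record does not say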
Target sequence (P41235 whole entry, looked up): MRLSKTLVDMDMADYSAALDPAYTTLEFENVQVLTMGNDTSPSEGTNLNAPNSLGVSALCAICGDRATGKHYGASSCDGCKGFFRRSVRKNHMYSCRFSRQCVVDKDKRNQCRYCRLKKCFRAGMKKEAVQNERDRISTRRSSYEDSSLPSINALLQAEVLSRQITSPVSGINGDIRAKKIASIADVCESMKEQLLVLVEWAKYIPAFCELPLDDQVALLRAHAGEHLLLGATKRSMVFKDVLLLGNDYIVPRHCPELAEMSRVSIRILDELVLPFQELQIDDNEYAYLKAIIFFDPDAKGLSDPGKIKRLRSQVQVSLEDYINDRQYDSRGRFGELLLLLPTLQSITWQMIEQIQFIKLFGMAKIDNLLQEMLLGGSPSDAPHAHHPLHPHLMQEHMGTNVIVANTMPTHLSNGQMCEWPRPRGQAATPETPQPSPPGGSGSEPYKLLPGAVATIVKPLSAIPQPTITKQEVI
AF4-AF9 inh: inhibitors of AF4 peptide binding to AF9, primary screen, biochemical, AlphaScreen, biotin-AF4 peptide, FLAG-AF9, single point; Protein AF-9 (Homo sapiens), P42568; AID 651704, 2012; 0.47% of 350,000 active; inhibition, % at 10 µM;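 active = every replicate reaching a set inhibition limit, whatever the replicate mean, cut at about 25% in these data; inconclusive = mean inhibition reaches that limit but some replicates miss it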;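 note: 0% = plate neutral control median and 100% = total signal loss; the record names both 10 and 1 µM as test concentration; the first replicate is given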
* hit, by the source's call; i = inactive; ? = inconclusive; nt = not tested or not shown; & = joins results of further samples. Some of the compounds tested, so the mix of outcomes need not match the whole.

#	compound	AF4-AF9 inh	Ecoli growth	UCH37 DUB inh	FGF22 binding	HNF4A DNA FP	Vif TR-FRET	RanGTP-Impb inh
1	N#C/C(=C\c1ccc(OCC(N)=O)cc1)S(=O)(=O)c1ccccc1	-2.1	0.69	6.0	i	2.0	1%	?
2	COc1ccc2nc(-c3ccc(Cl)cc3)cc(C(=O)O)c2c1	-37	0.67	i	i	4.8	12%	-3.8
3	NC(=O)C1CCN(C(=O)c2cnn(-c3ccccc3)c2NC(=O)c2ccco2)CC1	nt	0.74	1.6	nt	-2.1	-4%	-0.8
4	CCCN(CCC)CCCNC(=O)C(NS(=O)(=O)c1ccc2c(c1)CCC(=O)N2)c1ccccc1 (stereo unspecified)	-0.7	0.72	4.1	i	-4.8	17%	-2.1
5	CCc1ccc(OCC(=O)NCC(c2ccc(Cl)cc2)N2CCCCC2)cc1 (stereo unspecified)	3.9	0.6	2.9	i	-3.0	nt	2.7
6	CCCCC(=O)Nc1ccc(NC(=O)CCCC)nc1	nt	0.73	0.4	nt	0.1	-7%	0.9
7	O=C(Nc1ncc(Cc2ccccc2)s1)c1cccs1	nt	0.68	-1.5	nt	-2.4	3%	1.5
8	O=C(CSc1nnc(COc2ccc(Cl)cc2)o1)N1CCN(c2ccccc2)CC1	-1.2	0.78	5.4	i	1.2	15%&-5%	-0.9
9	COC(=O)c1cccc(NC(=S)N2CCN(c3ccccc3F)CC2)c1	0.1	0.73	-1.7	i	-0.2	-6%	0.2
10	CC(C)CCn1c(C(C)O)nc2ccccc21 (stereo unspecified)	nt	0.73	-1.2	nt	0.1	-8%	nt

Random excerpt: two entries already listed
#	compound	AF4-AF9 inh	Ecoli growth	UCH37 DUB inh	FGF22 binding	HNF4A DNA FP	Vif TR-FRET	RanGTP-Impb inh
2	COc1ccc2nc(-c3ccc(Cl)cc3)cc(C(=O)O)c2c1	-37	0.67	i	i	4.8	12%	-3.8
4	CCCN(CCC)CCCNC(=O)C(NS(=O)(=O)c1ccc2c(c1)CCC(=O)N2)c1ccccc1 (stereo unspecified)	-0.7	0.72	4.1	i	-4.8	17%	-2.1

Remaining list, next part
#	compound	AF4-AF9 inh	Ecoli growth	UCH37 DUB inh	FGF22 binding	HNF4A DNA FP	Vif TR-FRET	RanGTP-Impb inh
11	Fc1ccc(-c2nnsc2Sc2ccccn2)cc1	-1.6	0.73	2.8	i	4.7	nt	-1.0
12	CCOC(=O)C1=C(C)NC2=C(C(=O)CC(C)(C)C2)C1c1coc2ccccc2c1=O (stereo unspecified)	nt	0.71	1.2	nt	2.2	nt	3.6
13	O=S(=O)(Cc1cnc(Cl)s1)c1ccccc1	nt	0.75	-5.8	nt	0.8	5%	3.7
14	O=C1CC(N2CCCc3ccccc32)C(=O)N1c1ccccc1Cl (stereo unspecified)	nt	0.7	4.2	nt	12	15%	-3.4
15	CSCCNC(=O)C1(C)CCN1C(=O)CCc1ccccc1 (stereo unspecified)	-2.1	nt	nt	i	5.0	nt	nt
16	COc1ccc(N=C2C=CC(=O)O2)cc1	2.7	0.67	5.1	i	-5.2	-5%	nt
17	COc1ccc(CN(C(=O)c2snc(C(N)=O)c2N)C(CC(C)C)C(=O)NC2CCCCC2)cc1 (stereo unspecified)	8.2	0.72	-16	i	-0.1	nt	5.2
18	COc1ccc(OC)c(N(/C(N)=N/c2nc(C)cc(C)n2)S(=O)(=O)c2ccc(NC(C)=O)cc2)c1	-0.5	0.73	4.1	nt	-1.4	nt	2.8
19	CC(=O)Nc1ccc(S(=O)(=O)N2CCC3(CC2)OCCO3)cc1	-0.4	0.72	4.5	i	-0.3	nt	-2.1
20	O=C(Nc1ccccc1C(=O)Nc1nncs1)c1ccccc1	nt	0.67	-37	i	-0.5	3%	5.8
21	CCOc1ccc(S(=O)(=O)NCc2cccnc2)c2ccccc12	-0.7	0.63	-5.7	i	3.6	nt	3.1
22	O=C(Nc1ccccc1)c1ccc2c(c1)OCO2	nt	0.64	1.4	nt	6.9	-6%	1.1
23	COc1cccc(/C=C2\C=C(c3ccc(C)cc3)OC2=O)c1OC(C)=O	-3.5	0.64	-26	i	-1.8	4%	21*
24	Cc1occc(=O)c1OCc1ccc(F)cc1	-0.8	0.68	3.6	i	3.2	0%	-0.4
25	Cc1noc(C)c1COc1ccccc1C(=O)Nc1cccc(S(=O)(=O)N(C)C)c1	1.0	nt	nt	i	-3.3	nt	-2.9
26	O=C(COC(=O)c1ccc(F)cc1F)NC(=O)Nc1ccc2c(c1)OCCO2	6.7	0.67	1.7	i	2.8	nt	nt
27	CCC(C(=O)Nc1cccc(S(=O)(=O)N(C)c2ccccc2)c1)c1ccccc1 (stereo unspecified)	0.4	0.72	4.3	i	-1.6	5%	nt
28	O=C(Nc1ccc2c(c1)OCO2)c1cc2nc(C3CC3)cc(C(F)(F)F)n2n1	9.2	0.69	3.4	i	-6.9	12%	2.6
29	CC(=O)Nc1cccc(C(=O)Nc2ccccc2N2CCOCC2)c1	nt	0.7	3.6	nt	3.2	3%	2.5
30	Nc1ccccc1-c1nnc(SCc2ccccc2F)[nH]c1=O	nt	0.72	2.5	nt	-2.0	-4%	0.5
31	CSc1ccc(CN(C)C(=O)c2cc(S(=O)(=O)NCc3ccccc3)ccc2C)cc1	1.1	0.7	0.3	i	3.1	0%	-1.0
32	CC(C)NC(=O)Nc1cccc2c1O[C@H](CN(C)S(C)(=O)=O)[C@@H](C)CN([C@H](C)CO)C2=O	-1.0&-2.3	0.73	0.1	i	-0.1	-9%	nt
33	CCCCNC(=S)N(C)/N=C/c1ccccc1F	nt	nt	nt	nt	0.1	4%	-3.6
34	CCC(C)n1c(=O)c(C(=O)Nc2ccccc2S(N)(=O)=O)c(O)c2ccccc21 (stereo unspecified)	nt	0.73	-3.1	nt	0.5	-40%	5.1
35	CCOC(=O)/C(=C\c1ccc(OC)c(OC)c1)C(=O)c1cccnc1	0.5	0.69	-5.3	i	-0.7	nt	0.4
36	CC(=O)c1cccc(NC(=O)c2cccc3ccccc23)c1	-3.2	0.72	1.1	i	-1.5	-5%	-1.7
37	O=C(NCC1CCCO1)c1ccc(NS(=O)(=O)c2cccc([N+](=O)[O-])c2)cc1 (stereo unspecified)	-2.7	nt	nt	i	-0.2	2%	1.1
38	CCC1(c2ccc(F)cc2)NC(=O)N(CC(=O)N2CCN(C(=O)c3cccs3)CC2)C1=O (stereo unspecified)	-3.2	0.66	-0.6	i	-2.4	-1%	nt
39	Cc1cccc(-n2c(Cc3ccccc3)nnc2SCC(=O)N2CCOCC2)c1	nt	0.69	0.0	nt	-2.2	24%	0.4
40	CCOc1ccc(NC(=O)CSC2=NCCN2)cc1	-4.0	0.66	5.3	i	-0.4	nt	6.9
41	CCN(CC(=O)Nc1cc(Cl)ccc1C)C(=O)CN1C(=O)NC2(CCCC2)C1=O	-1.0	0.68	4.2	i	-0.3	0%	-2.8
42	COCCCn1c(=NC(C)=O)c(C#N)cc2c(=O)n3cccc(C)c3nc21	-2.3	0.73	i	i	-5.4	?	82*
43	O=S(=O)(c1ccccc1)c1nc(-c2cccs2)oc1NCC1CCCO1 (stereo unspecified)	nt	0.72	nt	nt	3.3	-4%	3.1
44	O=C(c1ccc2c(c1)OCO2)N(c1ccc(F)cc1)C1C=CS(=O)(=O)C1 (stereo unspecified)	nt	0.7	4.3	nt	2.8	-3%	-2.9
45	COc1ccc(CC(=O)N2N=C(C)CC2(O)c2cccnc2)cc1OC (stereo unspecified)	-14	0.67	0.1	i	2.1	2%	3.2
46	Cc1cc(N2CCN(c3ccccn3)CC2)n2cc(-c3ccccc3)nc2n1	nt	0.72	-26	nt	0.2	0%	-0.7
47	O=C(/C=C/c1ccc(OC(F)F)cc1)Nc1cccc(S(=O)(=O)NC2=NCCCCC2)c1	1.5	0.72	3.3	i	0.7	0%	-3.3
48	Cc1ccc(CNC(=O)[C@H](Cc2ccccc2)NC(=O)C2CCNCC2)cc1	1.3	0.64	0.8	i	0.9	-4%	-1.4
49	CC1(C(=O)NCc2cccnc2)Cc2c(-c3cccc(C(F)(F)F)c3)ccnc2O1 (stereo unspecified)	-2.0	nt	nt	i	-1.2	nt	nt
50	Cn1cc(C(=O)C(=O)N2CCCc3ccccc32)c2ccccc21	0.7	0.71	6.2	nt	-4.0	nt	1.9
51	CCCCCn1c(SCCN2CCOCC2)nc2c1c(=O)[nH]c(=O)n2C	nt	0.72	-1.2	nt	-0.5	1%	1.2
52	C=CCSc1nc2sc3c(c2c(=O)n1-c1ccccc1)CCN(C)C3	6.0	0.7	-84	nt	4.0	8%	-1.2
53	CCn1cc(CNC(=O)C2CCC(=O)N(CCc3cccc(F)c3)C2)cn1 (stereo unspecified)	-0.4	0.7	1.4	i	-0.8	nt	1.4
54	CCSC1OC(C(COC(C)=O)OC(C)=O)C(OC(C)=O)C1NC(C)=S (stereo unspecified)	-1.0	nt	nt	i	-4.0	-4%	nt
55	O=C(COC(=O)CNC(=O)c1cccc(F)c1)NCCC1=CCCCC1	-1.4	0.65	1.4	i	6.0	18%	?
56	Cc1cn(C2CC3OCC3O2)c(=O)[nH]c1=O (stereo unspecified)	nt	0.73	2.2	nt	0.9	6%	-4.3
57	Cc1cc(/C=N/NC(=O)c2cccs2)c(C)n1-c1cnccn1	5.2	nt	nt	i	-0.6	4%	-3.4
58	O=C(O)CC12CC3CC(C1)CC(n1ncc(NCC4CCCO4)c(Cl)c1=O)(C3)C2 (stereo unspecified)	-20	0.7	2.6	i	-0.3	0%	-0.2
59	Cc1ccc(C(=O)Oc2ccccc2N2C(=O)C3CCCCC3C2=O)cc1 (stereo unspecified)	nt	0.68	5.4	nt	0.5	2%	-2.1
60	C/C(CC(=O)Nc1ccccc1[N+](=O)[O-])=N\NC(=O)COc1ccccc1C	nt	nt	nt	nt	4.3	-5%	-3.1
61	O=C(CCN1CCN(Cc2ccccc2)CC1)NNC(=O)Cc1ccc(Cl)c(Cl)c1	nt	0.6	0.0	nt	1.1	17%	1.6
62	COc1ccc(NC(=O)CCCN(C)S(=O)(=O)c2ccc(C)cc2)cc1	nt	0.73	0.7	nt	-1.5	-3%	?
63	COc1cccc(NC(=O)Nc2cccc(C(=O)O)c2)c1	0.2	0.73	-0.1	i	0.4	nt	0.3

Screening results (PubChem BioAssay)
